# Screening results as filed in PubChem.
# GLA inh pH 4.5 – blocks human alpha-galactosidase A at pH 4.5; P06280; 230,000 tested, under 10 active; purified enzyme, 4-MU-alpha-Gal fluorescence, pH 4.5; activity change, negative = inhibition, % at 105 µM; AID 1467; inconclusive = small, poorly fitted or top-dose-only inhibition, or a rising curve; inactive = flat fitted curve, though single readings scatter; no compound was filed as active;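 note: 0% = full activity with enzyme and -100% = basal without enzyme; dose as in the result columns while the protocol names 77 µM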
# miR-21 reporter – raises the signal of a miR-21 reporter; HeLa miR-21 FLuc reporter, luciferase, 48 h; Potency, µM (highest dose often 38.3 µM), for the others: top-dose reporter change, positive = more light; 340,000 tested, under 10 active; AID 2288; active = well fitted rising curve with a large enough effect; inconclusive = small, poorly fitted or top-dose-only effect; inactive = no such curve, though single readings can be large or run the other way;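 note: % of control where 0% means no effect; miR-21 action dims this reporter so a rising signal means less miR-21 action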
#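 Compounds were titrated across several concentrations (up to approximately 40 uM) and incubated 48 hours with HeLa miR-21-FLuc reporter cells (miR-21 target sequence downstream of FLuc, endogenous miR-21). Readout was firefly luciferase luminescence after lytic detection reagent.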
# Rango-impB inh – Rango-importin beta binding inhibition; Rango CFP/YFP FRET sensor + importin beta, 45 min; Potency, µM (highest dose often 92.2 µM), inactives show top-dose inhibition of complex formation; hit rate 0.031% among 340,000; AID 540263; active = rising FRET ratio curve, often small or poorly fitted; inconclusive = mostly compound fluorescence or quenching in the first reads; inactive = flat curves in all reads;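 note: potency is the fitted concentration of half-maximal effect; 0% = DMSO wells and 100% = buffer wells lacking importin beta; nearly all actives have a fitted effect of over 15% in size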
# Target sequence (Q14974 whole entry, looked up): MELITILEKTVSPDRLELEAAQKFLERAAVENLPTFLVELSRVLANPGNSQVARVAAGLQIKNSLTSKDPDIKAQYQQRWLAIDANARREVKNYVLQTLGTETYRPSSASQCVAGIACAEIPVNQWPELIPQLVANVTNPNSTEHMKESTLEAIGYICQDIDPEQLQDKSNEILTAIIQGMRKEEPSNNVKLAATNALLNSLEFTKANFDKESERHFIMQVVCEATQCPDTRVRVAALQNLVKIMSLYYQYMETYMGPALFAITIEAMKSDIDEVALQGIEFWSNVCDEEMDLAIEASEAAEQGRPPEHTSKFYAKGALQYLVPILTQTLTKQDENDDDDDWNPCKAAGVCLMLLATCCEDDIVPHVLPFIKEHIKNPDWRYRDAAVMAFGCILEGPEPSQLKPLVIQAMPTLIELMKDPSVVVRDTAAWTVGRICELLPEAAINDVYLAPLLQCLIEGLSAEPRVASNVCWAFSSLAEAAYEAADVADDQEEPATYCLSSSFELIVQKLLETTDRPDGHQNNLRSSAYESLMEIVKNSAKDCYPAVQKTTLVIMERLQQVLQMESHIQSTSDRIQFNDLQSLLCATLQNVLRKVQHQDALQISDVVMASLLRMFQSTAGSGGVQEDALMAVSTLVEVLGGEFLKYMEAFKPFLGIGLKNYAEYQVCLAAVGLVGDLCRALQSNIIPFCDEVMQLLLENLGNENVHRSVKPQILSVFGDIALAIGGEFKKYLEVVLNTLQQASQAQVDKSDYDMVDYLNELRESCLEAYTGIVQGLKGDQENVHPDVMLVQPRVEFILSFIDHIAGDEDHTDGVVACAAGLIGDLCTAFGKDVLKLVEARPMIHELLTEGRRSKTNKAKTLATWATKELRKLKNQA
#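 FRET biosensor Rango (snurportin 1 IBB between N-terminal EYFP and C-terminal Cerulean), 50 nM in PBS/1 mM DTT/0.02% Tween-20/0.1% BSA, preincubated 5 min RT with compound; 0.125 microM importin beta added, 45 min RT, CFP/YFP FRET ratio read.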
# Rango release inh – inhibition of RanGTP-driven Rango-importin beta dissociation; Potency, µM (series often up to 46.1 µM), for inactives: at the top dose activity change, negative = inhibition; hit rate 0.071% among 340,000; O95149+P62826; Biochemical FRET Rango-importin beta, RanGTP-induced dissociation; active means falling FRET ratio curve, often poorly fitted, with flat reads before Ran was added; inconclusive means other falling curves, or compound fluorescence or quenching; inactive means flat or rising ratio curve;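 note: potency is the fitted concentration of half-maximal effect; % of control where 0% means no effect; nearly all actives have a fitted effect of over 45% in size; -100% = wells without RanGTP and RCC1; the record marks most hits as doubtful in a second field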
#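 Rango (0.1 uM)–importin beta (0.25 uM) complex; RanGTP-RCC1 trigger; 45 min RT; CFP/YFP FRET read.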
# Numbers without * were called inactive; ? = inconclusive; · = no result given; & = joins results of further samples. This is a subset; the hit share may differ from the screen's.
SMILES,GLA inh pH 4.5,miR-21 reporter,Rango-impB inh,Rango release inh
C(=C\c1ccccc1)/C=N/Nc1nc2ccccc2[nH]1,-4,-26%,-1.6%,-21%
Cc1ccc(C(=O)OCC(=O)Nc2ccc(F)c(Cl)c2)o1,·,·,1.4%,-3%
CC(c1cccs1)N(Cc1ccco1)C(=O)Nc1ccc(Cl)c(Cl)c1 (stereo unspecified),-7,7%,-1.1%,-14%
CCNC(=O)n1cc(-n2cncn2)c(-c2ccccc2)n1,3,3%,3.8%,0%
COc1ccc(CN(C)Cc2c(O)ccc3cc(Br)ccc23)cc1OC,·,6%,4.9%,13%
COC1Cc2ccccc2N(C(N)=O)c2ccccc21 (stereo unspecified),·,·,0.6%,-5%
CC(=O)N/C(=C\c1ccc(F)cc1)C(=O)NC(C(=O)O)C(C)C (stereo unspecified),-4,0%,4.8%,11%
CCOC(=O)c1sc(NC(=O)c2cccs2)nc1C,2,-23%,0.1%,1%
Cc1ccc(CSCC(=O)NCCCN2CCOCC2)cc1,2,0%,?,13%
O=C(O)CN1C(=O)N/C(=C\c2cccn2-c2ccc(P(=O)(O)O)cc2)C1=O,·,·,-2.0%,1%
COCCOC(=O)c1c(NC(=O)CNc2ccc(C)c(F)c2)sc(C(N)=O)c1C,-2,0%,-3.4%,1%
CC(C)[C@H](NC(=O)[C@@H]1Cc2ccccc2CN1C(=O)OC(C)(C)C)C(=O)NC1CCCC1,·,-3%,?,-8%
Clc1ccc(Cn2ncc3c(NCc4ccccc4)ncnc32)c(Cl)c1,-9,2%,·,·
Cc1cc(C(=O)NN)c2cc(Br)ccc2n1,0,26%,-0.2%,1%
COc1ccc(-c2noc(CCC(=O)N3CCC(c4cc(C)ccc4C)CC3)n2)cc1,·,·,1.1%,-15%
O=C(Nc1cc(S(=O)(=O)N2CCOCC2)ccc1N1CCOCC1)c1ccc([N+](=O)[O-])s1,·,·,6.5%,0%
COc1ccc(NC(=O)c2cnc3sccn3c2=O)cc1,7,-42%,?,7%
Cc1cccc(C(=O)NC(=S)Nc2ccc(N3CCOCC3)cc2)c1,2,-18%,-2.9%,-1%
CCC(=O)Nc1cccc(NC(=S)NC(=O)c2ccc(Cl)cc2)c1,2,-54%,0.2%,-16%
NC(=O)C1CCN(C(=O)C2CCC(=O)N(Cc3ccc(Cl)cc3)C2)CC1 (stereo unspecified),·,·,3.3%,3%
Cc1ccc(C(=O)NCC(=O)O)s1,3,-2%,?,-22%
CCOc1ccc2[nH]c(=S)[nH]c2c1,-2,-6%,1.4%,33%
Cc1cccc(C)c1NC(=O)CN(C)C(=O)c1ccccc1OCc1ccc(F)cc1,·,·,-0.9%,-10%
Cc1ccc(NC(=O)c2ncn(CCCNCc3ccccn3)n2)cc1C,·,·,1.1%,-11%
CN(C)S(=O)(=O)c1ccc(/C(O)=C2/C(=O)C(=O)N(Cc3cccnc3)C2c2cccs2)cc1 (stereo unspecified),3,-1%,-0.7%,15%
COc1ccc(CNC(=O)Cc2ccc(OC)c(S(=O)(=O)N3CCOCC3)c2)cc1,5,-3%,0.4%,1%
Cc1nnc(N2CCCC(C(=O)NCc3ccc(OC(C)C)cc3)C2)c2nn(-c3ccccc3)c(C)c12 (stereo unspecified),·,14%,0.7%,1%
COc1ccc(NC(=O)C2=CC(c3ccco3)=NS(=O)(=O)N2C)cc1,·,-33%&-6%,-1.4%,-6%
COc1ccc(/C(C)=N/OCC(=O)N=Nc2c(O)[nH]c3ccccc23)cc1,6,1%,-0.7%,-1%
Cc1ccc(NC(=O)c2ccccc2Cl)c(Cl)c1,-3,-46%,-1.1%,0%
COc1ccccc1OCC(=O)Nc1ncc(C)s1,·,·,?,1%
Clc1ccc(Cn2ncc3c(NCc4ccco4)ncnc32)c(Cl)c1,-14,17%,0.1%,5%
CCCc1ccc2oc(C(=O)N3CCN(C4CCS(=O)(=O)C4)CC3)c(C)c2c1 (stereo unspecified),·,-6%,0.1%,-7%
COc1ccccc1CNC(=O)Cn1cnnn1,·,1%,-0.3%,-3%
CN(C)CCCOC(=O)c1sc2ccccc2c1Cl,-5,-6%,1.0%,6%
CC(C)CCN1C(=O)c2ccc(C(=O)NCc3ccco3)cc2C1=O,-5,0%,1.8%,4%
COCCOC(=O)C1=C(C)NC(=O)NC1/C=C/c1ccccc1 (stereo unspecified),-2,-7%,2.3%,-1%
CC(CNC(=O)C(C)C)NC(=O)C(C)C (stereo unspecified),-1,-5%,-0.4%,3%
COc1cc(/C=C/C(=O)N2CCN(C(=O)/C=C/c3cc(OC)c(OC)c(OC)c3)CC2)cc(OC)c1OC,·,10%,0.7%,?
O=C(O)CN=C(NS(=O)(=O)c1ccc(Cl)cc1)c1ccccc1,4,-2%,-2.0%,3%

# Next part; it opens with the 5 that closed the last part.
SMILES,GLA inh pH 4.5,miR-21 reporter,Rango-impB inh,Rango release inh
CC(C)CCN1C(=O)c2ccc(C(=O)NCc3ccco3)cc2C1=O,-5,0%,1.8%,4%
COCCOC(=O)C1=C(C)NC(=O)NC1/C=C/c1ccccc1 (stereo unspecified),-2,-7%,2.3%,-1%
CC(CNC(=O)C(C)C)NC(=O)C(C)C (stereo unspecified),-1,-5%,-0.4%,3%
COc1cc(/C=C/C(=O)N2CCN(C(=O)/C=C/c3cc(OC)c(OC)c(OC)c3)CC2)cc(OC)c1OC,·,10%,0.7%,?
O=C(O)CN=C(NS(=O)(=O)c1ccc(Cl)cc1)c1ccccc1,4,-2%,-2.0%,3%
Cc1cccc(C)c1OC1(c2ccccc2)OC(=O)c2ccccc21 (stereo unspecified),-4,8%,0.3%,3%
O=C(O)c1n[nH]c2c1CCCC2,-24,-5%,-4.7%,2%
C/C(=N/NC(=O)c1ccoc1C)c1ccc(NC(=O)C2CCCC2)cc1,6,-68%,2.6%,44%
CCCC(=O)NNC(=O)CC(=O)Nc1ccccc1C(=O)O,6,-2%,-0.8%,-1%
O=C(OCc1cccnc1)C1=Cc2ccccc2OC1,-20,-25%,-1.3%,2%
O=C(Nc1ccccc1)C1C2/C=C\CCCCC21 (stereo unspecified),1,-37%,-0.3%,-3%
Cc1ccc(C(=O)Oc2ccc(N3C(=O)CCC3=O)c(C)c2)cc1,-13,-1%,?,0%
O=C(Cc1ccc(Cl)cc1)NC(=S)Nc1ccccc1N1CCOCC1,-7,-9%,-4.1%,?
COc1ccc(/C=N/NC(=O)c2cc(-c3cccc(C)c3)nc3ccccc23)cc1O,·,·,3.3%,-8%
COc1ccccc1N1CCN(C(=O)Cn2c(=O)[nH]c3ccsc3c2=O)CC1,-7,-4%,2.9%,-13%
CC(=O)OC(C(=O)NC1CCCCC1)c1ccc(Cl)cc1 (stereo unspecified),-3,-3%,0.8%,6%
CCOC(=O)N1CCN(C(=O)c2ccc3c(c2)NC(=O)/C(=C\c2cccc(C)c2)S3)CC1,·,-7%,?,1%
O=C1C(=Cc2cccs2)Oc2ccccc21,·,·,?,?
CNc1c(NS(=O)(=O)c2ccc(Cl)cc2)c(=O)oc2ccccc12,·,0%,0.0%,-7%
O=C(NNC(=O)c1ccc(O)c(Cl)c1)c1cccc(S(=O)(=O)N2CCOCC2)c1,·,·,2.4%,-15%
Cc1ccc(C)c(NC(=O)Nn2cnnc2)c1,·,4%,2.7%,7%
CC1CC(C)CN(CCCNC(=O)CN2C(=O)c3cccnc3Oc3ccccc32)C1 (stereo unspecified),·,-3%,-2.7%,18%
CCOc1cc(/C=C/C(=O)OCC(=O)NCCN2C(=O)CSC2=O)ccc1OCC(C)C,·,·,2.5%,-7%
CSc1ccccc1C(=O)Nc1ccccc1C,2,-3%,3.0%,1%
CCN(CC(=O)Nc1c(F)cccc1F)C(=O)c1cccnc1SC,·,2%,6.4%,33%
O=C(O)CCC(=O)Nc1ccc(Br)c(Cl)c1,-5,0%,-4.1%,4%
O=C(NCc1cccs1)C1CCCN1C(=O)Nc1cccc(Cl)c1 (stereo unspecified),-1,0%,2.0%,17%
Cc1cc(N2CCCC2=O)cc(C)c1S(N)(=O)=O,4,-2%,-0.5%,-6%
Cc1sc(NC(=O)C2CC=CCC2C(=O)O)c(C(=O)OC(C)C)c1C (stereo unspecified),7,-2%,-2.3%,-10%
O=C(CN1C(=O)C(=O)c2ccccc21)OCN1C(=O)c2ccccc2C1=O,-3,2%,-2.7%,-11%
CCN(CC)c1ccc(N2C(=NC(=O)C3CC3)SC3CS(=O)(=O)CC32)cc1 (stereo unspecified),·,-2%,4.5%,-12%
Cc1noc(C)c1S(=O)(=O)N1CCCC(C(=O)N2CCC(C)CC2)C1 (stereo unspecified),-12,0%,0.2%,-6%
CN(Cc1ccccc1)C(=O)CCn1c(=O)oc2ccccc21,-3,-8%,5.6%,10%
O=C(N/N=C/c1ccc(Cl)cc1)c1n[nH]c2c1CCCC2,1,-14%,2.8%,12%
Clc1cccc(OCCOCCN2CCNCC2)c1Cl,·,·,3.7%,31%
CCn1c(SCc2nc3ccccc3[nH]2)nnc1-c1ccccc1OC,0,-1%,-0.8%,-15%
CCC(C)NS(=O)(=O)c1ccc(NC(=O)C2CCN(C(=O)c3ccco3)CC2)cc1 (stereo unspecified),·,5%,-2.0%,-6%
Cc1ccc(NC(=O)CN(C)C(=O)c2ccc(-n3cncn3)c([N+](=O)[O-])c2)cc1,·,·,-2.5%,-9%
O=C1C(=O)N(CCN2CCOCC2)C(c2ccccn2)/C1=C(/O)c1ccc(F)cc1 (stereo unspecified),-4,-5%,?,?
CCSc1cnn(-c2ccccc2)c(=O)c1SCC,0,-3%,3.2%,2%
N#Cc1c(NC(=O)COC(=O)C2CC3C=CC2C3)oc(-c2ccccc2)c1-c1ccccc1 (stereo unspecified),-5,8%,-2.0%,0%
CC(=O)Nc1cc[n+](CC(=O)c2ccc(Cl)cc2)cc1,3,1%,4.6%,-24%
COC(=O)c1ccc2c(C)c(C3(O)CCCCC3)[nH]c2c1,·,·,0.2%,11%
OC(c1ccccc1)C(O)C(c1ccccc1)N1CCCCC1 (stereo unspecified),·,·,0.6%,6%
CCC1Nc2ncnc(N3CCN(c4ccccc4)CC3)c2N(Cc2ccc(C)cc2)C1=O (stereo unspecified),·,·,-11%,-17%
Cn1ccnc1SCC(=O)Nc1cc(S(=O)(=O)N2CCOCC2)ccc1Cl,-15,-2%,1.6%,12%
Cc1nc2ccccn2c1C(=O)CSc1ccc(Cl)cc1Cl,-3,-4%,-0.9%,0%
N#Cc1ccc2ccn(CC(=O)NC3CCCCC3)c2c1,2,-2%,1.3%,5%
COc1cc(/C=N/NC(=O)c2cnccn2)ccc1O,-11,-10%,4.9%,2%
Cc1ccnc(N2CCC(C(=O)Nc3ccc4c(c3)OCO4)CC2)n1,-1,-4%,-1.6%,26%
COc1ccccc1-c1nnc(SCC(=O)N2CCOCC2)n1-c1ccccc1,2,-8%,-3.7%,-8%
c1ccc(CCn2nnnc2C(c2cccs2)N2CCN(Cc3ccc4c(c3)OCO4)CC2)cc1 (stereo unspecified),-1,9%,-1.6%,19%
CC(=O)N1N=C(c2ccccc2)OC1(C)CC(=O)Nc1ccccc1 (stereo unspecified),3,-1%,-3.9%,12%
COc1ccc(S(=O)(=O)Nc2ccc3ccccc3c2)cc1C,-9,-8%,-5.2%,2%
Cc1c(NC(=O)/C=C/c2cccs2)c(=O)n(-c2ccccc2)n1C,0,0%,-0.7%,12%
N#CC(C(=O)O)=C1CCCC1,4,2%,0.0%,14%
CCOc1ccc(/C=C/C(=O)c2ccc(-c3ccccc3)cc2)cc1,-7,0%,1.7%,0%
COc1ccc(C(=O)n2cnc(N)n2)cc1,3,0%,1.5%,13%
CCOC(=O)c1c(NC(=O)N/N=C/c2ccc(O)c(OC)c2)sc(C(C)=O)c1C,20,-8%,·,·
CC(NC(=O)c1ccc(S(C)(=O)=O)cc1)c1cccc2ccccc12 (stereo unspecified),·,4%,-1.1%,0%
O=C(COC(=O)c1ccc(S(=O)(=O)Nc2ccccc2)cc1)NCCC1=CCCCC1,-3,-5%,-0.2%,2%
